Compound activity (PubChem BioAssay)
VDR inhibitor: inhibitors of human vitamin D receptor; P11473; VDR-SRC2-3 peptide fluorescence polarization, 2 h; Potency, µM, for the others: max response, negative = inhibition, usual class: inhibitors; hit rate 0.93% among 400,000; active = well fitted inhibition curve with a large enough effect; inconclusive = small, poorly fitted or top-dose-only effect, or another doubt; inactive = no such curve, though single readings can be large or run the other way; also: series mostly up to about 120 µM
Target sequence (P11473 whole entry, looked up): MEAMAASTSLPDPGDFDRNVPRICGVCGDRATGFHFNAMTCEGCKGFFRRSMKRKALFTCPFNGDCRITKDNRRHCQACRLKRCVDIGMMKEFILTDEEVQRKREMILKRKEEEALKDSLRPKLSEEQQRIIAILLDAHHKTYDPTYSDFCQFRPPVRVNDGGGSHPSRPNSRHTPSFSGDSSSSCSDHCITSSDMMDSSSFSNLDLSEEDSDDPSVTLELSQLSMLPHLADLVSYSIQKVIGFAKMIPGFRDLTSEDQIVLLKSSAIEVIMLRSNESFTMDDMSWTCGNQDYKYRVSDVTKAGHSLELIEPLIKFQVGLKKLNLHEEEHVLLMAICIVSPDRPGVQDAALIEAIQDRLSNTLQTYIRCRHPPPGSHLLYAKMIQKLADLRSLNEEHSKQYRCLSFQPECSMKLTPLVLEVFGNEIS
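VDR–SRC2-3 interaction, FP format. Cmpds 23 nl via pintool, brief spin, 2 h ambient incubation.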
The depositor's hits bear a star; u = inconclusive; [ ] = remark or other dose. % is scaled to controls: 0 for no effect and ±100 for the full control effect; potency is read from the fitted curve at half-maximal effect. A portion of the library; rates above refer to the full screens.

smiles	VDR inhibitor
O=C(CSc1nc2ccccc2nc1SCC(=O)N1CCCCC1)N1CCCCC1	5%
CCOc1ccccc1CNC(=O)c1ccc2c(c1)nc1n2CCCCC1	11%
Cc1cccc(C)c1NC(=O)C(c1ccccc1)N1CCC1=O (centres undefined)	u
Cc1ccc(NC(=O)C2CC(Cl)=CCC2C(=O)O)c([N+](=O)[O-])c1 (centres undefined)	8%
CN(C)N1C(N)=C(C#N)C(c2ccccc2F)C2=C1CC(C)(C)CC2=O (centres undefined)	4%
CCOC(=O)c1c(NC(=O)CN2CCCCC2)sc(CN(C)C)c1-c1ccccc1	19%
COc1ccccc1C(=O)Nc1ccc(-c2nnn(CC(=O)N3CCOCC3)n2)cc1	6%
CNS(=O)(=O)c1cc(C(=O)O)ccc1OC	u
COc1ccc(COC(=O)NC2CCN(S(=O)(=O)c3ccc(OC)cc3)CC2)cc1	1%
Clc1ccccc1CSc1nc(NCCc2ccccc2)c2ccccc2n1	4%
COC(=O)[C@@H]1C[C@H]2CC[C@H](O)C[C@H]2N1Cc1ccccc1OC(=O)c1cccs1	-6%
Cc1ccc2occ(/C=N/NC(=O)c3ccccc3Br)c(=O)c2c1	-28%
CC(=O)c1ccc2c(c1)c(C#N)c1ccccc1[n+]2[O-]	-14%
Cc1ccc(NC(=O)CSCc2ccc(F)cc2)cc1	-11%
C=CCn1c(COc2ccc(F)cc2)nnc1SCC(=O)NC1CCS(=O)(=O)C1 (centres undefined)	4%
N#C/C(=C\c1ccc2c(c1)OCO2)C(N)=S	-17%
Cc1ccc(C2=NN(CC(=O)NCCc3ccccc3)C(=O)CC2)cc1	-3%
Nc1nnc(-c2ccccc2F)s1	8%
CCOc1ccc(NC(=O)c2nn(C)c3c2COc2ccccc2-3)cc1	-1%
Cc1cc(CN(C)C(=O)c2cc(COc3ccc(C)c(C)c3)on2)n[nH]1	-7%
Cc1ccc(CNC(=O)CN2CCN(Cc3ccc(C)cc3)C2=O)cc1	4%
O=C(CCc1ccccc1Cl)N1CCN(S(=O)(=O)c2ccccc2)CC1	-19%
Cc1onc(C(=O)NCc2ccc(F)cc2)c1[N+](=O)[O-]	6%
Cc1ccc(NC(=O)CSc2nnc(-c3ccncc3)o2)cc1	-4%
COc1cccc2c(=O)c(SC(F)(F)C(F)C(F)(F)F)c(C)[nH]c12 (centres undefined)	u
CCN1C(=O)[C@H]2[C@@H](c3ccc(-c4cccc(Cl)c4)cc3)N[C@@](C)(C(=O)OC)[C@H]2C1=O	-23%
CN1C(=O)[C@H]2[C@@H](/C=C/c3ccccc3)N3C(=O)CN(Cc4ccc(-c5ccccc5)cc4)C(=O)[C@@]3(Cc3ccccc3)[C@H]2C1=O	-1%
Cc1ccc(-c2cc(N)n(-c3ccc(F)cc3)n2)cc1	-10%
O=C(NCc1cccnc1)Nc1ccc(Cl)c(Cl)c1	0%
O=C(NCc1ccccc1)c1ccc(N2C(=O)C3CCCCC3C2=O)cc1 (centres undefined)	-19%
O=C1C2C3C=CC(C3)C2C(=O)N1/N=C/c1cn(Cc2ccccc2)c2ccccc12 (centres undefined)	-4%
COc1cc(OC)c(C(=O)OCC(=O)N(Cc2ccccc2)C(C)(C)C)cc1OC	-14%
Cc1cccc(NC(=O)C(C)SCc2ccccc2)c1 (centres undefined)	-10%
COc1ccccc1CNc1nc2c(S(=O)(=O)c3ccccc3)nnn2c2ccc(Cl)cc12	-6%
CCCCn1c(N)c(N(CC)C(=O)c2ccc([N+](=O)[O-])c(C)c2)c(=O)[nH]c1=O	-14%
Cc1nc([N+](=O)[O-])c(C(=O)OCc2ccc(C#N)cc2)n1C	-17%
O=C(Nc1nc2ccccc2n1CCN1CCCC1)c1ccc(Cl)cc1	-1%
CCCNC(=O)C1CCC(Cn2c(=O)c3sccc3n(CC(=O)N3CCCC3)c2=O)CC1 (centres undefined)	9%
CCC1CCCCN1C(=O)COC(=O)CN(C)S(=O)(=O)c1ccc(NC(C)=O)cc1 (centres undefined)	-8%
CC(=O)NC1C(=O)N(Cc2ccccc2)c2ccc(Br)cc21 (centres undefined)	u
CCC(=O)NNc1ncnc2c1cnn2-c1ccccc1	-2%
COc1ccc(C(=O)c2sc(Nc3cccc(OC)c3)c(C(=O)Nc3cccc(C)c3C)c2N)cc1	28%
CCCCOc1ccc(CN2C(=O)C(=O)c3cc(Br)cc(C)c32)cc1OC	14µM*
COC(=O)C(Cc1ccccc1)OS(N)(=O)=O (centres undefined)	-7%
CCN(CC)C(=O)Cn1cc(S(=O)(=O)Cc2cccc([N+](=O)[O-])c2)c2ccccc21	-1%
COc1cc(NC(=O)CN2C(=O)COc3ccc(S(=O)(=O)N4CCOCC4)cc32)cc(OC)c1	-4%
O=C(Cc1cccs1)N1CCC(c2nc3c(nnn3Cc3ccccc3)c(=O)[nH]2)CC1	-3%
Cc1ccc(S(=O)(=O)Nc2nc(C)cc(-n3nc(C)cc3C)n2)cc1	-1%
COc1ccc(CCNC(=O)CSc2nc3ccsc3c(=O)n2CC2CCC(C(=O)O)CC2)cc1OC (centres undefined)	-7%
O=C(CCSc1ccccc1)Nc1nccs1	2%
CCOC(=O)c1c(-c2ccccc2)csc1NC(=O)c1cc(-c2cccc(OC)c2)on1	79µM*
CCn1c2ccccc2c2cc(CN3CCN(Cc4ccc(Br)cc4)CC3)ccc21	15%
CC(OC(=O)c1cn(-c2ccccc2)nc1-c1cccnc1)C(N)=O (centres undefined)	-21%
CCOC(=O)N1CCN(C(=O)C2CCN(S(C)(=O)=O)CC2)CC1	5%
C=CCc1cccc(C=Nc2cc(Br)ccc2O)c1O	-9%
CC(C)OCCCNC(=S)Nc1ccc2nc3n(c(=O)c2c1)CCCCC3	3%
CCN(CC)S(=O)(=O)c1ccc2c(c1)c(=O)c(C(=O)NCc1ccco1)cn2C	-1%
CC[C@H](C)[C@H](NC(=O)[C@H](C)NC(=O)[C@@H](N)C(C)C)C(=O)N[C@H](C(=O)N[C@H](C(=O)N[C@@H](CC(C)C)C(=O)N[C@H](C(=O)N[C@@H](CCCCN)C(=O)O)C(C)C)C(C)C)[C@@H](C)O	3%
COC(=O)c1c(SCc2ccc(C#N)cc2)nc(=O)[nH]c1C	3%
O=S(=O)(CCN1C=CC(C(F)(F)F)=NCC1)c1ccc(Cl)cc1Cl	-2%

The results go on:
smiles	VDR inhibitor
CC(=O)N1CCc2cc(C(=O)CN3CCN(c4cccc(Cl)c4)CC3)ccc21	-12%
COc1ccc(S(=O)(=O)NCCN2CCOCC2)c2ccccc12	-10%
CCOC(=O)c1c(C)oc2nc(C)nc(Nc3ccc(CC)cc3)c12	18%
C/C(=N\Nc1cc(C)nc(-c2ccccc2)n1)c1cccc([N+](=O)[O-])c1	-26%
O=C1NC(=Nc2ccc(Cl)cc2)SC1Cc1cccc(Cl)c1Cl (centres undefined)	12%
CCCC(=O)Nc1ccc2c(c1)C(=O)N(CCC(=O)O)C2=O	4%
Cc1ccccc1CS(=O)(=O)Cc1ccc(C(=O)N2CCOCC2)o1	-1%
CSc1ccccc1OCc1cc(C(=O)NCCn2ccnc2C)no1	-7%
N=C1/C(=C/c2ccc(OCc3ccccc3)cc2)C(=O)N=C2SC(CC(=O)N3CCOCC3)=NN12	1%
OC(CNC1Cc2ccccc2C1)COc1ccc(Cl)cc1 (centres undefined)	-11%
CC(=O)C1=C(c2ccccc2)N(C(C)=O)n2c(C)nnc2S1	12%
CC1CCCCC1NC(=O)c1cn(C)c2ccc(S(=O)(=O)N3CCCC3)cc2c1=O (centres undefined)	4%
O=C1CCCc2cc3c(cc21)CCCC3	7%
CSc1nc(=O)c2c(n1C)NC(=O)CC2c1cc(F)cc(F)c1 (centres undefined)	4%
O=C(NCCNC(=O)c1ccccn1)c1ccc(-c2ccccc2)cc1	-5%
CN(CC(=O)NCC1CCCO1)S(=O)(=O)c1ccc(Br)cc1 (centres undefined)	-2%
CC(OC(=O)CN1C(=O)c2ccccc2C1=O)C(=O)N(C)c1ccccc1 (centres undefined)	-3%
COc1ccc(-c2cc(C(=O)c3c(N)n(C)c(=O)n(C)c3=O)c3ccccc3n2)cc1	-9%
CCCCC(=O)NC(c1ccc(N(CC)CC)cc1)c1ccc2cccnc2c1O (centres undefined)	-9%
O=C(COC(=O)c1ccccc1OCc1ccccc1Cl)NC1CC1	-21%

7 entries picked at random from those above, as already listed:
smiles	VDR inhibitor
Cc1ccc(NC(=O)CSc2nnc(-c3ccncc3)o2)cc1	-4%
CNS(=O)(=O)c1cc(C(=O)O)ccc1OC	u
CC[C@H](C)[C@H](NC(=O)[C@H](C)NC(=O)[C@@H](N)C(C)C)C(=O)N[C@H](C(=O)N[C@H](C(=O)N[C@@H](CC(C)C)C(=O)N[C@H](C(=O)N[C@@H](CCCCN)C(=O)O)C(C)C)C(C)C)[C@@H](C)O	3%
CC(OC(=O)c1cn(-c2ccccc2)nc1-c1cccnc1)C(N)=O (centres undefined)	-21%
Nc1nnc(-c2ccccc2F)s1	8%
CC(C)OCCCNC(=S)Nc1ccc2nc3n(c(=O)c2c1)CCCCC3	3%
Cc1ccc(CNC(=O)CN2CCN(Cc3ccc(C)cc3)C2=O)cc1	4%

Remaining list, next part.
mol	VDR inhibitor
CN(C)Cc1c(C(=O)N/N=C/c2ccc(OCc3ccc(F)cc3)cc2)nnn1-c1nonc1N	21%
COc1cccc(NC(=O)c2cn(C3CCCCC3)c(=O)c3c2c2ccccc2n3C)c1	-10%
COc1ccc(S(=O)(=O)N2CCCCCC2)cc1	-13%
Cc1nc(SCC(=O)c2ccccc2)[nH]c(=O)c1Oc1ccc(Cl)cc1	121%[activator]
COC(=O)CNC(=O)COC(=O)Cc1ccc(Cl)cc1	-16%
COC(=O)/C(C#N)=C1/SC=C(C)N1c1ccccc1	11%
CSc1n[nH]c(-c2ccc(C(F)(F)F)cc2)n1	17%
CCOC(=O)N1CCN(Cc2nc(-c3cccc(C)c3)no2)CC1	1%
O=C(Nc1ccccc1C(F)(F)F)C1CCN(C(=O)Cc2ccccc2)CC1	-3%
CC(C)COC(=O)Cn1cnc2ccc(Br)cc2c1=O	-1%
CCOc1ccccc1OCCCC(=O)NCCc1ccc(S(N)(=O)=O)cc1	8%
CC(=O)N1CCc2cc(Br)cc(S(=O)(=O)N3CCCCC3)c21	-1%
COc1ccc(-n2ncc(C(=O)N3CCN(c4ncccn4)CC3)c2C2CCN(C(=O)OC(C)(C)C)CC2)cc1	11%
O=C(O)COc1ccc(C(NC(=O)c2c(F)cccc2F)NC(=O)c2c(F)cccc2F)cc1	-5%
CC(=O)N1CCCc2cc(S(=O)(=O)NCc3ccc(OC(C)C)cc3)ccc21	5%
COc1ccc(Cl)cc1NC(=O)CSc1nnc2[nH]c(=O)cc(-c3ccccc3)n12	10%
O=C(O)[C@H](Cc1ccccc1)NC(=O)C(c1ccccc1)(c1ccccc1)c1ccccc1	-26%
O=C(/C=C/c1ccc(S(=O)(=O)N2CCOCC2)cc1)N1CCN(c2ccccc2)CC1	-17%
Cc1ccc(/C=C2/SC(=S)N(CC(=O)Nc3ncc(Cc4ccc(C)cc4)s3)C2=O)cc1	35%[activator]
COc1ccc(CNC(=O)CN(C(=O)CCC(=O)Nc2ccccn2)c2cc(C)ccc2C)cc1	-19%
O=C(COC(=O)c1cccc(Br)c1)NCCc1ccc(F)cc1	68%[activator]
COc1ccc(C2CC(=O)C3=C(C2)Nc2ccccc2N(C(C)=O)C3c2ccco2)cc1 (centres undefined)	-11%
CC(=O)N1CCN(c2ccc(NCc3ccco3)cc2)CC1	-13%
COc1ccc(NC(=O)CSc2nc3ccccc3c(=O)n2CCCN2CCCCC2)c(OC)c1	-6%
CCOC(=O)CSc1cc(CS(=O)(=O)c2ccccc2)nc(-c2ccccc2)n1	7%
O=C(NCc1ccccc1)C(c1ccccc1)N(C(=O)c1csnn1)c1ccc(F)cc1 (centres undefined)	8%
CC(C)C(=O)Nc1cccc(NC(=O)c2cccc([N+](=O)[O-])c2)c1	-2%
CC(C)(C)C1CCc2onc(C(=O)O)c2C1 (centres undefined)	3%
Cc1cc(=O)oc2cc(OCC(O)Cn3ccnc3)ccc12 (centres undefined)	-2%
CN(CC(O)COC(c1ccccc1)c1ccccc1)C1CCCCC1 (centres undefined)	-20%
CN(C(=O)COc1cc(=O)n(C)c2ccccc12)c1ccc(Br)cc1	5%
Cc1cc(C(=O)CN2C(=O)C(=O)N(C)C2=O)c(C)n1-c1cccc(S(=O)(=O)N2CCOCC2)c1	4%
COc1ccc(CCNC(=O)CSc2nnnn2-c2ccc(OC)c(OC)c2)cc1OC	11%
Cc1ccc2nc(SCC(=O)Nc3cccc(S(N)(=O)=O)c3)[nH]c2c1	0%
CC(C)C(NS(=O)(=O)c1ccccc1F)C(=O)OCC(=O)NCc1ccco1 (centres undefined)	-16%
COc1cccc(NC(=O)c2cc(-c3cccnc3)nc3c(Cl)cccc23)c1	12%
CCc1cccc(NC(=O)c2ccc3c(c2)c(C)c(C)n3Cc2ccc(F)cc2)c1	9%
O=C(CCCN=C1NS(=O)(=O)c2ccccc21)OCc1ccccc1	-6%
COc1ccccc1NC(=O)Cn1nnc2sc3c(c2c1=O)CC(C)(C)OC3	-19%
COCCNC(=O)c1cccc(S(=O)(=O)N2CC3(C)CC2CC(C)(C)C3)c1 (centres undefined)	-13%
Cc1ccc(S(=O)(=O)N2CCCC2C(=O)O)s1 (centres undefined)	9%

An excerpt from above in order of SMILES length, smallest number first.
mol	VDR inhibitor
CC(C)C(NS(=O)(=O)c1ccccc1F)C(=O)OCC(=O)NCc1ccco1 (centres undefined)	-16%
CC(C)C(=O)Nc1cccc(NC(=O)c2cccc([N+](=O)[O-])c2)c1	-2%
COCCNC(=O)c1cccc(S(=O)(=O)N2CC3(C)CC2CC(C)(C)C3)c1 (centres undefined)	-13%
